# CSC inhib: cancer stem cell inhibition | cancer stem cell-like cells viability, luminescence | inhibition, % at 7.5 µM | AID 2717 | 1.1% of 300,000 active;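 active means mean at 75% or more and at least half the replicates too; inconclusive means mean and replicates disagree; tested in HMLE shEcad cells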;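 further: 0% = median of negative and 100% = median of positive control wells; the first replicate is given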
# UUG fidelity: alters start codon recognition fidelity in yeast; S. cerevisiae UUG-firefly luciferase reporter, luminescence/redox ratio; AID 602363; activity score, % at 18.7 µM; 0.13% of 350,000 active;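 active means replicate mean at a twofold rise or more, about +100% in these data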;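 further: firefly luciferase made from a UUG start codon reports start codon fidelity; reporter light over untreated wells divided by growth signal over untreated wells; some hits fall short of that in this replicate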
# eIF4H inh: inhibitors of RNA binding by human eIF4H. Q15056. 0.94% of 290,000 active. inhibition, % at 35 µM. eIF4H fluorescence polarization binding assay;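 active means 50% or more with normal probe brightness, or confirmed in later tests; inconclusive means above 50% with abnormal brightness, or retests that disagree; inactive means below 50% or failed in later tests; about a fifth of its hits are not listed in these tables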;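 further: calls also rest on retests at 20 µM and on dose response follow-up; 0% = protein and probe with vehicle and 100% = probe without protein; strong numbers were not always called active; many hits fall short of the cut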
# HIV Env fusion: HIV envelope-mediated fusion inhibition; inhibition, % at 12.3 µM; 1.1% of 360,000 active; AID 651610; HeLa-JRFL Env/CEM21 cell fusion, luciferase;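 active means mean replicate inhibition score of at least 50 and every replicate individually at or above 50; inconclusive means only one of the two criteria met; inactive means mean below 50 and not all replicates reaching 50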;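 further: 0% = plate neutral controls and 100% = maraviroc near 300 nM; one replicate is shown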
# Rce1 inhib: yeast Ras-converting enzyme inhibition; yeast membranes, quenched prenylated peptide cleavage fluorescence; calls only; 0.27% of 290,000 active; Q03530;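 active means fall in fluorescence gain of 50% or more versus controls, with final raw signal at or below 3038400; inconclusive means same 50% fall but final raw signal above 3038400; inactive means fall in fluorescence gain under 50%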;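 further: plate controls were neutral control wells for no effect and wells lacking membranes for full effect; tested at 10 µM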
# Target sequence (Q03530 whole entry, looked up): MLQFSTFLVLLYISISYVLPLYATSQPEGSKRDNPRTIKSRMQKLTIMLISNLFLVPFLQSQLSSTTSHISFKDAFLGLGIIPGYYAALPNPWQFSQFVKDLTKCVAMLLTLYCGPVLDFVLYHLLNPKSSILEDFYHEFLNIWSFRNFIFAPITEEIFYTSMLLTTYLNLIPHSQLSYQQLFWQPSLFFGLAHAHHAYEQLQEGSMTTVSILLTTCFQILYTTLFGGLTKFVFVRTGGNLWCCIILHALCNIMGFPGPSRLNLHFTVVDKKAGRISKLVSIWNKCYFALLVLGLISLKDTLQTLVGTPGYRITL
# MT1-MMP act inh: inhibitors of human MT1-MMP activation; P50281; HT1080 RFP-PRO-GFP cells, GFP/RFP ratio fluorescence, overnight; percent of plate control window, DMSO zero; GFP/RFP ratio change, % at 20 µM; 0.061% of 360,000 active; AID 651647;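 active means GFP/RFP ratio change of at least 30% with cell ATP level not reduced by more than half and red fluorescence within 50% of control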; further: strong numbers were not always called active
#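 Read-out: GFP/RFP fluorescence ratio; Test system: RFP-PRO-GFP reporter HT1080 cells; Compound dosing: single-point 20 µM compound, 1% DMSO; Times: overnight compound exposure at 37 °C.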
# PABP polyA inh: PABP-poly(A) binding inhibition; inhibition, % at 35 µM; PABP-poly(A) RNA binding, fluorescence polarization; 1% of 290,000 active;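 active means 50% or more with normal probe brightness, or confirmed in later tests; inconclusive means above 50% with abnormal brightness, or retests that disagree; inactive means below 50% or failed in later tests; about a fifth of its hits are not listed in these tables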;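 further: calls also rest on retests at 20 µM and on dose response follow-up; controls were probe without protein and protein plus probe with vehicle; some compounds called inactive have numbers as strong as hits; many hits fall short of the cut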
# eIF4H inh retest: recorded beside eIF4H inh, whose call it bears; inhibition, %; compound at 20 µM; confirmation average;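 mean of two retest wells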
# PABP polyA inh retest: recorded beside PABP polyA inh, whose call it bears; inhibition, %; compound at 20 µM; confirmation repeats;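 mean of two retest wells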
# MT1-MMP act inh RFP: also measured in MT1-MMP act inh; calls as there; RFP signal change, %; measured here: RFP expression control read;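 0 = vehicle wells; hits needed this value within 50% of zero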
# Starred values were filed as active, the others as inactive; i = inactive; ? = inconclusive; . = no result given; + = active, no number.
SMILES,CSC inhib,UUG fidelity,eIF4H inh,HIV Env fusion,Rce1 inhib,MT1-MMP act inh,MT1-MMP act inh RFP,PABP polyA inh,others
O=C(CN1CCOCC1)N/N=C/C(Br)=C\c1ccccc1,-11,.,-7,-8,i,3,0,-11,
Cc1ccc2cc(CN(CC3CCCO3)C(=S)Nc3ccccc3)c(=O)[nH]c2c1C (stereo unspecified),61,.,3,31,i,-7,-11,9,
Cc1ccc(C)c(Nc2ccc(C(=O)NCCc3ccccc3)cn2)c1,19,.,-2,-2,i,2,0,6,
CC1CC(C)CN(S(=O)(=O)c2ccc3c(c2)C(C)(C)C(=O)N3C)C1 (stereo unspecified),5,-16,.,0,i,3,4,.,
O=c1c(/C=N/OCc2ccc(Cl)cc2Cl)c[nH]n1-c1cccc(Cl)n1,94*,.,25*,-17,i,1,3,74,eIF4H inh retest=69*;PABP polyA inh retest=30
O=c1[nH]c2ccc(S(=O)(=O)Nc3ccc(Br)cc3)cc2[nH]1,-3,-20,.,7,i,4,8,.,
Cc1ccc(C)c(N2CCN(C(=O)C(Cc3ccccc3)n3cccc3)CC2)c1 (stereo unspecified),30,-9,-2,8,i,-11,-16,-7,
CCOc1cc(C2CC(=O)c3c(ccc4ccccc34)N2)ccc1O (stereo unspecified),0,-2,2,.,i,2,0,-6,
Cc1cc(C(=O)NCCCN2CCCC2=O)no1,-12,-18,0,-13,i,-4,1,11,
CC(C)NC(=O)c1cc(C2CCCCN2S(=O)(=O)c2cccc3cccnc23)on1 (stereo unspecified),.,-15,.,4,.,-2,-2,.,
Cc1ccc(CNS(=O)(=O)c2ccc3c(c2)NC(=O)CO3)cc1,-6,-14,-6,9,i,1,2,-5,
Cc1cc(C(=O)N2CCN(c3ccc(F)cc3)CC2)on1,3,8,-2,-2,i,3,6,-7,
Cc1ccccc1C(=O)N1CCC(C(=O)OCc2ccccn2)CC1,-3,.,.,10,.,-3,2,.,
CCOc1ccccc1N(CC(=O)Nc1ccc(S(=O)(=O)N2CCOCC2)cc1)S(=O)(=O)c1ccccc1,-6,-14,7,.,.,3,-2,34,
N/C(=N\OC(=O)c1ccc2c(c1)OCO2)c1ccc(Br)cc1,19,-11,1,-65,i,-14,-3,-2,
C=CC(=O)Nc1cccc(Oc2ncnc3[nH]cc(-c4cnc5ccccc5c4)c23)c1,.,-13,.,57*,.,-21,-4,.,
COc1cc(C(=O)NCc2ccc3c(c2)OCO3)c([N+](=O)[O-])cc1OC,-14,0,-2,3,i,-1,-2,2,
O=C(Nc1ccccc1F)c1ccco1,-15,-17,3,-39,i,-1,0,-10,
Cc1ccc(-c2nc3ccccc3s2)cc1NC(=S)NC(=O)c1cccc2ccccc12,48,.,-17,-19,i,2,5,-3,
CCOc1ccc(NC(=S)N(CCCN2CCOCC2)Cc2cn(C)c3ccccc23)cc1,0,-18,-3,14,i,-2,-2,-17,
CN(C)CCOC(=O)COc1ccc(Cl)cc1,-6,-13,.,i,.,1,5,.,
CCCn1nc(C(=O)OCC(=O)Nc2ncc(Cl)c(C)c2Cl)c2ccccc2c1=O,-5,-4,-10,10,i,-2,4,-12,
O=C(Cc1c(F)cccc1Cl)NC1CCN(Cc2ccccc2)CC1,-7,-11,3,5,i,4,10,5,
CC(C)Cc1nnc(NC(=O)c2cc(-c3ccccc3)nc3ccccc23)s1,23,-6,-13,-44,i,1,3,-4,
CCOC(=O)Cc1c(C)nc(Cc2ccc(OC(C)C)cc2)[nH]c1=O,-7,-7,-5,-11,i,0,1,0,
CCc1cc(=O)oc2cc(C)cc(OC(C)C(=O)O)c12 (stereo unspecified),5,-7,-22,4,i,4,4,2,
Cc1cccc(C)c1Nc1nnc(SCC(=O)NCc2cccs2)s1,-12,-10,7,7,i,3,8,6,
CNc1oc(-c2ccccc2)nc1C#N,-7,-3,-8,-206,?,0,5,-2,
Cc1ccsc1C(=O)N1CCCC(CCC(=O)NCc2ccccc2F)C1 (stereo unspecified),5,.,8,0,i,3,3,-4,
CC(=O)Nc1ccc(S(=O)(=O)N2CCCN(S(=O)(=O)c3ccc(C)cc3)CC2)cc1,8,-17,0,39,i,-1,-6,-10,
O=C(Cn1cnc2ccccc2c1=O)NCCC(=O)Nc1ccccc1C(F)(F)F,-8,-40,-2,-1,i,1,8,-6,
Cc1cccn2cc(-c3c[nH]c4ccccc34)nc12,12,-16,-13,-58,i,2,3,-3,
CCOC(=O)C1CCN(C(=O)Cc2c(C(=O)O)n(CC)c3ccccc23)CC1,-15,-11,4,.,i,-6,3,2,
COc1ccc2[nH]c(=O)c(CN(C(=O)c3cccnc3)c3ccccc3OC)cc2c1,-1,-10,-12,.,i,2,0,-10,
NS(=O)(=O)c1ccc(CCNC(=O)CN2CCN(c3cccc(Cl)c3)CC2)cc1,0,.,-2,45,i,2,-13,1,
O=C(NCC1COCCO1)c1ccc(OC2CCN(CCc3ccccc3)CC2)cc1 (stereo unspecified),.,-13,6,-2,i,-3,-1,3,
N#Cc1ccsc1NC(=O)CN1CCN(c2ccccn2)CC1,1,-9,2,.,i,-2,1,0,
C#CCNC(=O)c1csc([C@@H]2O[C@H](CO)[C@@H](O)[C@H]2O)n1,.,-26,.,2,.,1,2,.,
CCCNC(=O)C(CC)NC(=O)c1ccc(C#N)cc1 (stereo unspecified),-20,-18,.,-31,.,3,4,.,
CCc1ccc(C(C(=O)NC2CCCC2)N(C(=O)/C=C/C(=O)Nc2cc(C)on2)c2ccccc2C)cc1 (stereo unspecified),25,.,0,77*,i,-19,-24,-5,
CCOC(=O)C1=C(C)OC(N)=C(C#N)C1c1ccc(O)c(OC)c1 (stereo unspecified),-12,1,1,-18,i,-7,5,-3,
CCOc1ccc(-c2nc(C#N)c(NCC3CCCO3)o2)cc1 (stereo unspecified),9,-9,-7,-24,i,8,-4,0,
Cc1nn(C)cc1C(C)NCc1c(C(=O)N2CCCCCCC2)nc2ccc(Cl)cn12 (stereo unspecified),-4,.,-3,5,i,2,2,-1,
Cc1cccc(C)c1NC(=O)C(C)Sc1nnc(C)n1CC1CCCO1 (stereo unspecified),.,-10,-4,-2,i,-1,4,10,
COc1ccccc1-c1nc(C#N)c(N2CCC(C(N)=O)CC2)o1,-1,-6,9,-64,?,2,6,3,
O=S(=O)(CCSc1nc2ccccc2o1)c1nc2ccccc2s1,46,-14,-8,.,i,-13,-14,4,
O=C1C(=O)N(CCCN2CCOCC2)C(c2cccs2)/C1=C(/O)c1ccc2c(c1)OCO2 (stereo unspecified),.,.,0,-14,i,.,.,-6,
Cc1c(NCc2cc(Cl)ccc2O)c(=O)n(-c2ccccc2)n1C,-4,-4,-5,.,i,1,4,-6,
COCCN(C(=O)CSCC(=O)Nc1ccc(C)cc1)c1c(N)n(CC(C)C)c(=O)[nH]c1=O,.,-17,.,7,.,0,4,.,
COC(=O)c1ccccc1NC(=O)C1CC(=O)N(c2ccc(F)cc2)C1 (stereo unspecified),4,-47,2,.,i,1,3,6,
CC1(C2CC2)NC(=O)N(CC(=O)Nc2ccc(SC(F)F)cc2)C1=O (stereo unspecified),4,-17,.,-8,.,8,1,.,
Cc1ccc(C(=O)O)cc1S(=O)(=O)N1CCC(C(=O)O)CC1,-10,-27,-5,-26,i,3,4,5,
CCN1CCN(C(=O)CCN2C(=O)c3ccccc3C2=O)CC1,2,-12,4,0,i,-1,4,67,eIF4H inh retest=22;PABP polyA inh retest=35
O=C(NNC(=O)C(O)(c1ccccc1)c1ccccc1)C1CC1,-2,.,3,-2,i,2,-1,4,
CCNc1nc(NC(C)C)nc(N(C)C#N)n1,-5,-12,0,8,i,4,6,4,
C/C(=N\NC(N)=O)C1(C)CCCCC1,-1,-10,-2,-50,i,-3,1,-2,
COC(=O)Cn1c(CN2CCOCC2)nc2c1c(=O)n(C)c(=O)n2C,7,0,-9,22,i,-3,4,-1,
Cc1cc2nc(-c3ccco3)c(CC(C)(C)C)n2c(C)c1Br,.,-5,.,-44,.,2,6,.,
O=C(COC(=O)COc1ccc2ccccc2c1)NCC(F)(F)F,-18,-8,-4,11,i,1,2,-15,
O=C(NC(=S)Nc1ccccc1Cl)c1cncc(Br)c1,-14,-13,1,4,i,-4,-5,-6,

# By substructure, those above with an aryl methoxy group
SMILES,CSC inhib,UUG fidelity,eIF4H inh,HIV Env fusion,Rce1 inhib,MT1-MMP act inh,MT1-MMP act inh RFP,PABP polyA inh,others
COc1cc(C(=O)NCc2ccc3c(c2)OCO3)c([N+](=O)[O-])cc1OC,-14,0,-2,3,i,-1,-2,2,
COc1ccc2[nH]c(=O)c(CN(C(=O)c3cccnc3)c3ccccc3OC)cc2c1,-1,-10,-12,.,i,2,0,-10,
CCOC(=O)C1=C(C)OC(N)=C(C#N)C1c1ccc(O)c(OC)c1 (stereo unspecified),-12,1,1,-18,i,-7,5,-3,
COc1ccccc1-c1nc(C#N)c(N2CCC(C(N)=O)CC2)o1,-1,-6,9,-64,?,2,6,3,

# Other results.
SMILES,CSC inhib,UUG fidelity,eIF4H inh,HIV Env fusion,Rce1 inhib,MT1-MMP act inh,MT1-MMP act inh RFP,PABP polyA inh,others
Cn1c(CNC(=O)c2ccco2)nnc1SCC(=O)c1ccc(F)cc1,0,6,-10,9,i,0,3,0,
CC(=O)NCCc1ccc(S(=O)(=O)NC2OC(=O)c3ccccc32)cc1 (stereo unspecified),-3,.,-4,-4,i,-1,-2,8,
CC(=O)Nc1ccc2c(COC(=O)[C@@H](NS(=O)(=O)c3ccc(C)cc3)C(C)C)cc(=O)oc2c1,-4,-8,.,-21,.,2,0,.,
O=C(NCC12CC3CC(C1)CC(CNC(=O)N1CCCC1)(C3)C2)N1CCCC1,-7,.,-6,-43,i,2,5,-4,
Cc1ccc2c(c1)N(C(=O)CSc1nncn1C)C(C)(C)c1ssc(=S)c1-2,4,-23,2,.,i,2,-2,2,
Cc1c(C#N)c2ccccc2n1CC(=O)NCC1CCCO1 (stereo unspecified),-1,-10,-2,.,i,0,10,0,
Cc1nn(CCCC(=O)NCc2ccco2)c(=O)c2nn(-c3ccccc3)c(C)c12,-23,2,3,-1,i,-1,1,5,
COc1ccc(NC(NC(=O)c2cccnc2)C(Cl)(Cl)Cl)cc1 (stereo unspecified),-6,.,-5,10,i,5,3,4,
COc1cnc(N(C)C)nc1Sc1ccc(Cl)cc1,3,-11,-8,-240,i,-2,-4,0,
O=S(=O)(/N=C(/Nc1nc2ccccc2s1)c1ccccc1)c1ccc(F)cc1,.,-9,.,-85,.,-3,2,.,
CC(C)(C)C(CCl)C(=O)NN=C(c1ccccc1)c1ccccc1 (stereo unspecified),-21,-13,.,-15,.,0,2,.,
Cc1cc(C)n(CCc2nc(-c3ccco3)cs2)n1,-5,-3,51*,.,i,-3,2,35*,eIF4H inh retest=78*;PABP polyA inh retest=53*
COc1cccc(Nc2nc(C)nc3c2oc2ccccc23)c1,9,-5,-3,-25,+,-1,-11,-4,
COc1ccc([C@H]2N[C@]3(CCCN(CC4CCCCC4)C3=O)[C@H]3C(=O)N(Cc4ccccc4)C(=O)[C@@H]23)cc1,.,-6,.,-264,.,1,0,.,
O=C1CC(c2cccs2)Cc2nc(NCC3CCCO3)ncc21 (stereo unspecified),-5,-8,0,-31,i,1,2,-2,
O=C(Cn1cccc1)Nc1ccc(OC(F)(F)F)cc1,-10,-3,7,.,i,3,0,-9,
O=C(Nc1ccc(-c2nc3cc(Cl)ccc3o2)cc1)C1CCCO1 (stereo unspecified),10,-13,1,-258,i,2,3,-4,

# This is a random part of the collection. Share with any hit: about 2.9%.
